Screens (PubChem BioAssay)
Vaccinia Venus: inhibitors of vaccinia virus (Venus reporter) | Vaccinia virus Venus reporter expression, fluorescence | Potency, µM (titrated, usually from 36.5 µM), for inactives: at the highest dose activity change, negative = inhibition, hits mostly inhibitors | 330,000 tested, 0.46% active | AID 720580; active means well fitted inhibition curve with a large enough effect; inconclusive means small, poorly fitted or top-dose-only effect; inactive means no such curve, though single readings can be large or run the other way; tested in A549 cells; further: nearly all actives have a fitted effect of over 30% in size; inactives centre near -10
VACV mCherry inh: vaccinia inhibition (mCherry reporter); Vaccinia virus mCherry reporter infection, fluorescence; about a quarter of the inactives have no number; Potency, µM (titrated, usually from 36.5 µM), without a hit: top-dose activity change, negative = inhibition, hits mostly inhibitors; 310,000 tested, 0.63% active; AID 720579; active = well fitted inhibition curve with a large enough effect; inconclusive = small, poorly fitted or top-dose-only effect; inactive = no such curve, though single readings can be large or run the other way; tested in A549 cells; further: nearly all actives have a fitted effect of over 35% in size; inactives centre near -10
* = called active by the depositor; i = inactive; ? = inconclusive; / = not tested or not shown; & = joins results of further samples; [ ] = another dose, or the depositor's remark. On the % scale 0 is the no-effect control and ±100 the full control effect; potency means the concentration at half of the fitted maximal effect.

SMILES	Vaccinia Venus	VACV mCherry inh
COC(=O)c1c(C(=O)NCc2ccccc2)ncn1CC(O)COc1ccccc1 (centres undefined)	-21.5%	/
CCN(C(=O)c1ccc2c(c1)OCO2)C1CCS(=O)(=O)C1 (centres undefined)	-6.7%	-9.8%
COCc1c(C(=O)N/N=C\c2cccnc2)nnn1-c1nonc1N	11.3%	-7.8%
Cc1ccc(N/C=C(/C#N)c2ccsc2)cc1	-13.3%	-25.3%
COc1ccc(/C=C2\N=C(c3c(-c4ccccc4)noc3C)OC2=O)cc1OC	-4.9%	-6.3%
Cc1ccc(S(=O)(=O)N2C[C@@H]3[C@H]4CC[C@H](C4)[C@@H]3[C@@H](C)[C@@H]2c2cn(Cc3ccccc3)c3ccc(F)cc23)cc1	-7.5%	i
CN1CCN(Cc2c(O)ccc3c(-c4ccccc4)cc(=O)oc23)CC1	-10.3%	-20.7%
CC(=O)c1ccc(Nc2ncnc3c2oc2ccccc23)cc1	-16.1%	/
CN(C(=S)NC(=O)C1(C)CC1(Cl)Cl)c1ccccc1 (centres undefined)	-14.4%	-11.6%
CCN(CC(=O)Nc1ccccc1C(F)(F)F)C(=O)c1cccc(S(=O)(=O)N2CCN(C)CC2)c1	-9.4%	-21.2%
CC(=O)Nc1cc(S(=O)(=O)C(F)(F)F)ccc1Cl	-7.6%	-13.5%
C=CCN1CCS(=O)(=O)N(Cc2ccccc2)[C@@H](C(C)C)C1=O	-15.8%	i
O=C(Nc1cc(Br)ccc1O)c1cnn2c(C(F)F)cc(C3CC3)nc12	?	-23.9%
COc1ccc(CC(=O)Nc2nc(-c3cc(OC)ccc3OC)cs2)cc1	?	11.2µM*
Cc1ncc([N+](=O)[O-])n1Cc1cccc(F)c1	-6.0%	i
COc1ccc(S(=O)(=O)Nc2cccc(-c3ccc(N4CCCCCC4)nn3)c2)cc1OC	-11.2%	-14.4%
C[C@@H](C(=O)Nc1ccc2ccccc2c1)[C@H]1C[C@]1(C)[C@H](NC(=O)OCc1ccccc1)c1ccccc1	?	-14.1%
Cc1c(NC(=S)NC(=O)COc2ccccc2)c(=O)n(-c2ccccc2)n1C	5.7%	i
O=C(Cn1cnc2c(nc3n2CCCCC3)c1=O)Nc1cccc(C(F)(F)F)c1	-7.3%	10.9%
CCNC(=O)Nc1cc2nc(C)n(Cc3ccc(Br)cc3)c2nc1C	-3.0%	/
COCCNC(=O)c1ccc(N(C)S(=O)(=O)c2ccc(OC)c(OC)c2)cc1	?	/
Cc1ccc(NC(=O)COC(=O)c2ccc(CN3CCCC3=O)cc2)cc1C	-12.9%	-13.8%
COc1ccc2c3n([n+]([O-])c2c1)CCN=C3c1ccc(Cl)cc1	-10.6%	-8.7%
CCC(OC(=O)c1nsc(Cl)c1Cl)C(=O)NC(C)(C)CC (centres undefined)	-9.7%	-5.2%
O=C(Cc1cccs1)N1CCCC(c2nc(-c3ccc(S(=O)(=O)N4CCCC4)cc3)no2)C1 (centres undefined)	?	?
SMILES	Vaccinia Venus	VACV mCherry inh
CN1C(C(=O)Nc2ccccn2)=C(O)c2sccc2S1(=O)=O	-14.8%&-6.6%	-10.6%
COc1ccccc1C(CNC(=O)C(C)Oc1ccc(Br)cc1)N1CCCC1 (centres undefined)	0.0%	-10.9%
COc1ccc(-n2cc(C(=O)N(CCN(C)C)Cc3ccccc3)c3ccccc3c2=O)cc1	-14.4%	-13.5%
Cn1c(=O)[nH]c(=O)c2c1nc(CN1CCN(c3ccc(F)cc3)CC1)n2CCCc1ccccc1	-13.1%	-23.6%
Clc1ccc2nsnc2c1NC1=NCCN1	-10.0%&-15.1%&-4.6%	-13.6%&-19.5%
O=C1OCCC1Sc1nnc(-c2ccc3c(c2)OCO3)n1-c1ccccc1 (centres undefined)	-4.1%	-2.9%
COc1cc(-c2cc3n(C)c(C)c(CCC(=O)O)c(=O)n3n2)cc(OC)c1OC	3.2%	4.0%
CN(CC(=O)Nc1cccc(F)c1)C(=O)C1CC(=O)N(CCc2ccccc2)C1 (centres undefined)	-8.1%	i
Cc1ccc(NC(=O)C(=O)NCC(c2cccnc2)N2CCOCC2)cc1 (centres undefined)	-13.3%	-6.0%
Cc1ccc(C)c(COC(=O)c2cc(S(=O)(=O)N3CCCCC3)ccc2N2CCOCC2)c1	-27.7%	?
CCOc1ccc(N(CC(=O)NCCCOC)S(C)(=O)=O)cc1	-12.3%	/
CCN(CC)c1ncc(C#N)c(N)n1	-4.3%[7.34 µM]	-11.1%[7.34 µM]
O=c1oc2ccccc2c(Nc2ccc3ncccc3c2)c1[N+](=O)[O-]	-22.4%	-27.4%
O=C1CC(c2ccc(F)cc2F)c2cc3c(cc2N1)OCO3 (centres undefined)	-15.9%	-6.0%
O=C(NCc1ccccc1Cl)c1cc(-c2ccccc2)n[nH]1	-8.5%	-1.8%
CC(=O)N1c2ccc(S(=O)(=O)N3CCC(C(=O)NCc4ccc(C)cc4)CC3)cc2CC1C (centres undefined)	-15.7%	i
O=C(COc1ccccc1)NC1=NCCS1	-19.7%	-0.1%
O=C(Cc1ccccc1F)Nc1ccc(S(=O)(=O)N2CCCCC2)cc1	-12.2%	-21.4%
c1ccc(C2=NCCCO2)cc1	2.1%	i
O=C(CCc1ccccc1)NNC(=O)c1cccc(F)c1	2.3%	i
CC(CC1C(C#N)=C(N)SC(N)=C1C#N)c1ccccc1 (centres undefined)	11.9%	-14.9%
Cc1cc(C)nc(NS(=O)(=O)c2cccs2)c1	-10.5%	-4.2%
Cc1ccc(SCC(=O)NNC(=O)CCS(=O)(=O)c2ccc(C)cc2)cc1	-11.2%	-13.4%
Cc1nc2ccc(C(=O)Nc3ccc(N(C)C)cc3)cc2s1	-6.0%	i
CCOC(=O)[C@]12CCC=C1N(Cc1cccc3ccccc13)C(=O)[C@H](CC(=O)N1CCN(C(=O)c3ccco3)CC1)C2	-20.0%	-3.6%
SMILES	Vaccinia Venus	VACV mCherry inh
CC1(C(=O)NC2CCCCC2)CCC(=O)N1C1CCN(Cc2ccccc2)CC1 (centres undefined)	-4.1%	i
O=C(CSc1ncccn1)NC1CCCC1	-3.7%	-12.7%
CC1CC(C)(C)N(C(=O)NC2CCCCC2)c2ccccc21 (centres undefined)	-15.4%	-21.1%
Cn1ncc(Cl)c1C(=O)Nc1sc2c(c1C(N)=O)CCC2	?	-23.4%
CCOc1cc(/C=C2/NC(=O)NC2=O)cc([N+](=O)[O-])c1O	-16.9%	-17.0%
COC(=O)c1ccc(NC(=O)CSc2ccc(-c3sc(-c4ccccc4)nc3C)nn2)cc1	-2.8%[7.34 µM]	-6.2%[7.34 µM]
Cc1cc(=O)oc2ccc(OC(=O)CN3C(=O)c4cccc([N+](=O)[O-])c4C3=O)cc12	-10.5%	-24.5%
Cc1ccc(NC(=O)Nc2cnccn2)cc1Cl	0.0%	-13.4%
CCCCOCCCNC(=O)c1ccccc1OCC	-2.8%	-8.4%
CCC(C)[C@H](NC(=O)C1CCN(C(=O)[C@H](Cc2ccccc2)NS(=O)(=O)c2ccc(C)cc2)CC1)C(=O)O (some centres undefined)	-4.8%	-7.9%
Cc1cc2ccccc2n1CCNC(=O)C(C)Oc1ccccc1 (centres undefined)	-13.4%	-11.3%
CCCOc1ccccc1-n1sc2c(c1=S)-c1cc(OC)cc3c1N(C(=O)C3=O)C2(C)C	-2.4%	i
COC(=O)c1sccc1NC(=O)CN1CCN(c2ccc(F)cc2)CC1	-24.2%	/
Cc1ccccc1OCC(=O)Nc1cccc(C(=O)O)c1	0.3%	3.4%
C=C(C)C1CC[C@]2(CO)CC[C@@]3(C)[C@H](CCC4[C@@]5(C)CCC(O)C(C)(C)C5CC[C@@]43C)C12 (some centres undefined)	-9.5%	-5.1%
O=C(Nc1ccc(NC(=O)C2CC2)nc1)c1ccccn1	-16.2%	-17.7%
CC(=O)c1cccc(OCc2cc(C(=O)N(C)C(C)c3ccccn3)no2)c1 (centres undefined)	-3.4%	-2.9%
COC(=O)[C@]1(C)N[C@H](CN(C)S(=O)(=O)c2ccc(OC(F)(F)F)cc2)[C@@H]2C(=O)N(Cc3ccccc3)C(=O)[C@@H]21	-13.0%	i
C(=C\c1ccnc2ccccc12)/c1ccc(N2CCN(c3ccc(/C=C/c4ccnc5ccccc45)cc3)CC2)cc1	-10.1%	i
COc1ccccc1NC(=O)c1c(-c2ccc(C)cc2)nnc2ccccc12	-7.7%	-10.2%
CCOc1cccc(N2C(=O)CC(N(CCc3ccc(OC)c(OC)c3)C(=O)CC)C2=O)c1 (centres undefined)	-0.5%	/
CN(C)CCN1C(=O)C(=O)/C(=C(/O)c2ccc(S(=O)(=O)N3CCOCC3)cc2)C1c1ccc(F)cc1 (centres undefined)	-11.5%	-3.2%
O=C(CSc1ccccc1F)NCC(c1ccco1)N1CCCCC1 (centres undefined)	-16.2%	-13.5%
COc1ccn(C2CCCCO2)c(=O)n1 (centres undefined)	-0.9%	-3.1%
COc1ccc(C(C(=O)Nc2ccc(F)cc2)N(C(=O)Cn2nnc3ccccc32)C2CC2)cc1 (centres undefined)	-21.3%	-1.6%

Exported as comma-separated lines: entries from further up
canonical_smiles,Vaccinia Venus,VACV mCherry inh
COC(=O)[C@]1(C)N[C@H](CN(C)S(=O)(=O)c2ccc(OC(F)(F)F)cc2)[C@@H]2C(=O)N(Cc3ccccc3)C(=O)[C@@H]21,-13.0%,i
C(=C\c1ccnc2ccccc12)/c1ccc(N2CCN(c3ccc(/C=C/c4ccnc5ccccc45)cc3)CC2)cc1,-10.1%,i

The listing continues:
SMILES	Vaccinia Venus	VACV mCherry inh
Cc1ccc(CN(Cc2ccco2)C(=O)c2ccccc2Br)o1	-17.5%	5.3%
Cc1ccc(Cl)cc1N1CCN(Cc2nc3c(c(=O)[nH]c(=O)n3C)n2CCc2ccccc2)CC1	-10.5%	/
COc1ccc(-c2[nH]ncc2/C=N/NC(=O)c2cc(Br)ccc2O)c(OC)c1	-15.1%	i
COc1ccc(-c2noc(CSc3nnc(C)n3-c3ccc(C)c(C)c3)n2)c(OC)c1	-15.4%	-13.5%
COC(=O)c1c(C)[nH]c(O)c1C=Nc1ccc(Oc2ccccc2)cc1	-3.0%	-27.6%
CSc1ccccc1COC(=O)Nc1ccccc1C	1.8%	-14.0%
COc1ccc(C(=O)Nc2nc3c(s2)CCc2cc(OC)ccc2-3)cc1	-6.7%	-22.0%
O=c1ccc2c(ccc3ncccc32)o1	15.5%	i
CN(C)c1ccc(-c2csc(C(C)(O)c3ccc(F)c(F)c3)n2)cc1 (centres undefined)	-2.4%	i
CC(C)C(c1nnnn1C1CCCCC1)N1CCc2ccccc21 (centres undefined)	-16.3%	-1.2%
CSc1nc2nccc(-c3ccc4c(c3)OCO4)n2n1	-18.9%	0.3%
O=C(/C=C/c1ccc(Cl)cc1Cl)N1CCN(c2ccc([N+](=O)[O-])c(N3CCOCC3)c2)CC1	-6.7%	15.2%
COc1cccc(CSc2nc3ccncc3n2CC(=O)Nc2ccc(OC)c(OC)c2OC)c1	-2.7%	-14.0%
Cc1ccc(SC[C@H](C)CN2CC[C@H](O)CCC2=O)cc1	-12.7%	-1.2%
COC(=O)c1cc(Br)c(=O)n(-c2cc(C)on2)c1	-8.8%	/
CC(C)Oc1cc(F)ccc1-c1cc(C(=O)NCc2cccnc2)[nH]n1	-15.9%	-24.3%
CS(=O)(=O)c1ccc2nc(NC(=O)CN3CCCCCC3)sc2c1	-1.6%	-14.4%
O=C(c1cccs1)N1CCCN(c2ncnc3scc(-c4ccccc4)c23)CC1	-16.8%	i
CC(C)CN(C(=O)c1cc(=O)[nH]c2ccccc12)c1c(N)n(Cc2ccccc2)c(=O)[nH]c1=O	-1.4%	-22.5%
CCOc1ccc(C2C3=C(CCCC3=O)Nc3nc(C(F)(F)F)nn32)cc1OC (centres undefined)	-10.3%	/
Cc1cc(C)n(-c2c(F)c(F)c(CN3CCCCC3)c(F)c2F)n1	-4.9%	/
CCc1ccc(-n2c(Cc3ccccc3)n[nH]c2=S)cc1	-13.9%	-6.2%
CCOc1ccc(-n2ccnc2SCC(=O)Nc2cc(C)ccc2C)cc1	-21.4%	i
Cc1ccc(-n2c(-c3ccco3)nc3nc4ccccc4nc32)cc1F	-7.0%	i
CCCCc1c(-c2ccc(Br)cc2)ncn1CCc1ccccc1OC	?	?
SMILES	Vaccinia Venus	VACV mCherry inh
CCC(=O)N1CCCc2cc(S(=O)(=O)N3CCN(c4ccccn4)CC3)ccc21	-25.6%	-22.3%
COc1ccc(O)c(-c2nc(N)nc(N)n2)c1	?	?
CC(C)(O)c1[nH]c2ccc(C#N)cc2c1C(C)(C)O	-13.0%	-0.6%
OCCN1CCN(C(=S)c2ccc(Cl)cc2)CC1	-7.7%	/
Cc1nc2ccc(NC(=O)Cc3ccc4c(c3)OCCO4)cc2s1	-16.0%	-6.0%
O=C(CSc1ccc2nnc(-c3cccc(F)c3)n2n1)NCC1CCCO1 (centres undefined)	-8.6%	-9.6%
COc1ccc(OC)c(NC(=O)CSc2ncc3c(n2)-c2ccccc2N(C)S3(=O)=O)c1	3.9%	-9.3%
COC(=O)C1=C(c2ccc(F)cc2OCc2ccccc2)C[C@@H]2CC[C@H]1N2C(=O)NCc1ccc(OC)c(OC)c1	?	i
Cc1cn2c(=O)cc(COC(=O)c3cccc(NC(=O)c4ccccc4Cl)c3)nc2s1	-17.7%	-13.6%

Sorted by length of the SMILES (highest first): part of the list above
SMILES	Vaccinia Venus	VACV mCherry inh
COc1ccc(OC)c(NC(=O)CSc2ncc3c(n2)-c2ccccc2N(C)S3(=O)=O)c1	3.9%	-9.3%
CCC(=O)N1CCCc2cc(S(=O)(=O)N3CCN(c4ccccn4)CC3)ccc21	-25.6%	-22.3%
O=C(CSc1ccc2nnc(-c3cccc(F)c3)n2n1)NCC1CCCO1 (centres undefined)	-8.6%	-9.6%
CC(C)(O)c1[nH]c2ccc(C#N)cc2c1C(C)(C)O	-13.0%	-0.6%
COc1ccc(O)c(-c2nc(N)nc(N)n2)c1	?	?
